Assay outcomes as filed in PubChem BioAssay.
Sfp PPTase inh: qHTS Assay for Inhibitors of Bacillus subtilis Sfp phosphopantetheinyl transferase (PPTase) | 4'-phosphopantetheinyl transferase ffp (Bacillus subtilis), Q9F4F7 | Biochemical Sfp PPTase activity, qHTS | Potency, µM, for the others: max response, negative = inhibition, hits mostly inhibitors | 310,000 tested, 3.5% active | AID 1490, 2009; active = well fitted inhibition curve with a large enough effect; inconclusive = small, poorly fitted or top-dose-only effect, or another doubt; inactive = no such curve, though single readings can be large or run the other way;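 note: the enzyme is Sfp with the accession as filed and its product quenches rhodamine fluorescence; potency is the fitted concentration of half-maximal effect; 0% = enzyme reaction without inhibitor and -100% = no enzyme wells; top concentration of the series not given in the record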
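With Hepes-Na pH 7.6 buffer containing 10 mM MgCl2, Sfp (15 nM) modified BHQ-2-YbbR (12.5 uM) using rhodamine-CoA (5 uM). Two reads 30 minutes apart at 525/598 nm yielded each well's rate.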
CtBP-E1A blk: qHTS Assay for Inhibitors of the CtBP/E1A Interaction; CtBP / adenovirus E1A interaction (AlphaScreen); AlphaScreen GST-E1A/His-CtBP binding, 1536-well; stronger effect = lower value; control for the full effect not named in the record; activity change, % (concentration not given with the values); 340,000 tested, 0.49% active; AID 651724, 2012; in the data active means activity change below about -65%; inconclusive means about -30% to -65%; inactive means above about -30%; note: % is set by controls: 0 for no effect and ±100 for the full control effect
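In 5 uL wells, 23 nL compound meets equimolar GST-E1A and His-CtBP (5X stock 125 nM each) for 2 h, 37 °C. Beads (5X, 50 ug/mL) then 1 h, 37 °C, dark.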
D2 PAM: Beta-Arrestin HTS for Positive Allosteric Modulators of the Human D2 Dopamine Receptor: Potentiators; D(2) dopamine receptor (Homo sapiens), P14416; potentiation, % (test concentration not listed); 360,000 tested, 0.23% active; DiscoveRx D2 beta-arrestin cells, luminescence, 90 min; 100% = 57 uM dopamine signal; active = potentiation of 50% or more; inconclusive = 30% to 50%; inactive = 30% or less;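 note: compound concentration not given in the record; tested on top of an EC20 dose of dopamine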
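D2 cells co-treated with compound plus 50 nM dopamine (EC20) for 90 min at 37 deg C to detect potentiation. Beta-arrestin recruitment was read as enzyme-fragment luminescence after 1 h at ambient temperature. Full response was set by 57 uM dopamine.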
PINK1 expr mod: A Quantitative High throughput Screen to Identify Chemical Modulators of PINK1 Expression | 410,000 tested, 0.2% active | PINK1 immunofluorescence, high-content cytometry, 24 h | AID 624263, 2012 | Potency, µM (series often up to 76.6 µM), for the others: at the top dose activation (PINK1 increase), usual class: activators; active = well fitted activation curve with a large enough effect; inconclusive = small, poorly fitted or top-dose-only effect; inactive = flat fitted curve, though single readings scatter; cell line not stated here;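 note: potency is the fitted concentration of half-maximal effect; % of control where 0% means no effect; nearly all actives have a fitted effect of over 65% in size; a mitochondrial uncoupler was the plate control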
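Stable cell line treated 24 h with compounds at 5 concentrations (CCCP controls), then fixed and immunostained for PINK1 plus nuclear and cell stains; PINK1 immunofluorescence quantified by laser-scanning microplate cytometry.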
Six1-Eya2 blk: qHTS Assay for Inhibitors of the Six1/Eya2 Interaction. 360,000 tested, 0.56% active. Homeobox protein SIX1 (Homo sapiens) + Protein phosphatase EYA2 (Homo sapiens), …. AlphaScreen GST-Six1/His-Eya2 binding, biochemical; stronger effect = lower value; control for the full effect not named in the record. activity change, % (test concentration not listed); in the data active = activity change below about -65%; inconclusive = about -30% to -65%; inactive = above about -30%; note: % is set by controls: 0 for no effect and ±100 for the full control effect; compound concentration not given in the record
Target sequence (O00167 whole entry, looked up): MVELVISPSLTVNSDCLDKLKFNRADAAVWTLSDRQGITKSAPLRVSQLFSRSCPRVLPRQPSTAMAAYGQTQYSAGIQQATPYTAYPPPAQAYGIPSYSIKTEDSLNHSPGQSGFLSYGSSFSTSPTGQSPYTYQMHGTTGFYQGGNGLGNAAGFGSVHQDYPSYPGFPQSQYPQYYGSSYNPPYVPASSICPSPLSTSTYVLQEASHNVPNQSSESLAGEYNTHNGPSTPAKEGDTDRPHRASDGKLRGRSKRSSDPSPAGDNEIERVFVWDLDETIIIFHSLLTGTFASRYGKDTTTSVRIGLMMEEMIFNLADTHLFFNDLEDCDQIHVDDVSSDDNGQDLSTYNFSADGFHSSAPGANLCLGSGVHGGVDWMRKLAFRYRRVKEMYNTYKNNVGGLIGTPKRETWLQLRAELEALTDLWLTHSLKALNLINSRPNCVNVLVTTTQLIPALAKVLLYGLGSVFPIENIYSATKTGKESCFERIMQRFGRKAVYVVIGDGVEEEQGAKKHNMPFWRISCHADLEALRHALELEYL
Target sequence (Q15475 whole entry, looked up): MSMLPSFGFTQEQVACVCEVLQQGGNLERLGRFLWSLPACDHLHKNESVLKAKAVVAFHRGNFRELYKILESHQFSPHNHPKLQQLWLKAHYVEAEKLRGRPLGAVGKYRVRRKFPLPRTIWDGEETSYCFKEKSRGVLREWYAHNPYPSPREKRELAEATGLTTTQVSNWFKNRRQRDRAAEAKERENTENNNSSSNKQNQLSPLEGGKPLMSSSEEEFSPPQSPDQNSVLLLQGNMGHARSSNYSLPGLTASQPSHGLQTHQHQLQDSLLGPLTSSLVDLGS
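GST-Six1 + His-Eya2 (5X stock: 250/500 nM); Tris pH 8.0, 300 mM NaCl, 0.05% BSA, 0.02% Tween 20; GSH donor/Ni acceptor beads; 1 h 37 °C dark; AlphaScreen readout.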
D2 ag: Beta-Arrestin HTS for Positive Allosteric Modulators of the Human D2 Dopamine Receptor: Agonists; D(2) dopamine receptor (Homo sapiens), P14416; DiscoveRx PathHunter D2 beta-arrestin, luminescence, 90 min; 100% = 57 uM dopamine signal; activation, % (test concentration not listed); 360,000 tested, 0.084% active; in the data active = activation above about 40%; inconclusive = about 15% to 40%; inactive = below about 15%; note: compound concentration not given in the record; the text of the record calls up to 30% inactive
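DiscoveRx PathHunter D2 beta-arrestin cells (2,100/well) attached overnight, then compound-stimulated 90 min at 37 C in HBSS/10 mM HEPES/0.1% Tween-20 buffer; beta-galactosidase complementation read by luminescence after 1 h at ambient temperature. Dopamine 57 uM final (EC100) as control.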
TRPV1 potentiator: HTS Assay for Compounds that Act as Potentiators of the Vanilloid Receptor 1; Transient receptor potential cation channel subfamily V member 1 (Homo sapiens), Q8NER1; TRPV1-expressing cells, Fluo-8 calcium influx, capsaicin EC20 potentiation; host cell line not named in the record; control for the full effect not named in the record; potentiation, % at 8.33 µM; 320,000 tested, 0.02% active; AID 540277, 2011; active means potentiation above 80%; inconclusive means 30% to 80%; inactive means below 30%; note: 0% is about no effect
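TRPV1-expressing cells were cultured overnight at 35.5C and loaded with Fluo-8 calcium dye for 40 to 90 min at room temperature. After a 10 s baseline, compound was added and calcium influx was read kinetically for 3 min (ex 480/em 520 nm).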
* = called active by the depositor; ? = inconclusive; · = not tested or not shown; & = joins results of further samples; [ ] = dose if it differs, or a comment.

SMILES	Sfp PPTase inh	CtBP-E1A blk	D2 PAM	PINK1 expr mod	Six1-Eya2 blk	D2 ag	TRPV1 potentiator
CC1CCCN(S(=O)(=O)c2ccc(N(C(=O)c3cnccn3)C(C(=O)NC3CCCCC3)c3cccs3)cc2)C1 (stereo unspecified)	-4%	1	-6	0.1%	-6	-1.2	-20
Cn1ncc(Br)c1C(=O)NC1CCCCCCC1	10%	7	-2	0.8%	8	2.0	-13
COc1ccc(NC(=O)CSc2nc3[nH]ncc3c(=O)n2-c2ccccc2OC)cc1OC	1%	-12	7	3.8%	-2	-4.3	4
Cc1cc(C)c2sc(N)nc2c1	15%	8	-1	-0.9%	-1	-1.3	25
CCC(CO)Oc1cc(NCc2ccccc2)c2ncn(C3CCCC3)c2c1 (stereo unspecified)	·	-4	-40	6.0%	-19	4.3	·
COc1cc(/C=N/N=C(\N)c2nonc2N)cc(OC)c1O	-2%	-24	-2	2.7%	-21	2.9	3
COc1ccc(C(=O)C2CCCN(Cc3cnc(N4CCOCC4)s3)C2)cc1F (stereo unspecified)	6%	1	-10	-0.3%	6	-1.6	?
COc1ccc(NC(=O)Nc2ccccc2)cc1S(=O)(=O)N1CCCCC1	6%	0	-15	0.2%	-6	2.8	-17
Cc1nnc(SCc2ccc(Cl)cc2)n1CC1CCCO1 (stereo unspecified)	-22%	-2	11	-0.7%	-13	-0.9	·
COc1cc2c(cc1NCc1ccccn1)oc1ccccc12	-26%	-9	25	1.0%	-11	-1.3	5
Cc1ccc(S(=O)(=O)N2CCC(Oc3cccc(C(F)(F)F)c3)CC2)cc1	15%	·	-5	6.2%	4	-1.3	-3
Cc1ccc2cccc(OCC(=O)Nc3ccc(N4CCOCC4)cc3)c2n1	13%	·	-4	1.8%	-11	5.7	-6
COc1cccc(-n2c(=O)c3cc(OC)c(OC)cc3n(CC(=O)Nc3cc(C)[nH]n3)c2=O)c1	23%	-4	-9	4.5%	-12	-3.5	-5
CC1CCC(NC(=O)c2[nH]c(C(F)(F)F)nc2-c2ccccc2)CC1 (stereo unspecified)	·	-4	-6	1.8%	-10	-2.7	·
COCCCNC(=O)c1ccc(Cn2c(=O)c3ccccc3n(Cc3ccc(C)cc3)c2=O)cc1	18%	8	15	0.2%&7.4%	5	1.8	1
CCCS(=O)(=O)c1c(S(=O)(=O)CCC)c2c3ccccc3ccn2c1C(N)=O	20%	-2	0	0.0%	-1	-2.1	-2
COc1ccc(NC(=O)C2CCCN2c2ccc(OC)c(OC)c2)cc1OC (stereo unspecified)	-2%	-7	6	-1.0%	-13	-0.3	5
Cc1cc(OCC(=O)OCC(=O)N2CCc3ccccc3C2)ccc1Cl	·	0	1	-0.3%	0	-1.8	-6
Fc1ccc(C[n+]2csc3ccccc32)cc1	45µM*	0	-2	3.0%	-13	-2.7	5
N#C/C(=C(/O)CN1CCOCC1)c1nc2ccccc2s1	-3%	-1	2	0.1%	3	-2.9	-2
COc1ccc(OCc2nnc(SCC(=O)N3C(C)CCCC3C)o2)cc1 (stereo unspecified)	1%	-2	-2	0.1%	0	-0.7	6
COc1ccccc1NC(=O)c1ccc(CN(c2cc(Cl)ccc2C)S(=O)(=O)c2ccccc2)cc1	5%	-3	8	7.7%	-4	-3.0	4
CCOc1cc(N2CCOCC2)c(OCC)cc1NC(=O)c1c(-c2ccccc2Cl)noc1C	0%	?	-6	5.9%	-26	-1.8	-4
Cc1c(C(=O)CN2CCOCC2)[nH]c2ccccc12	0%	1	-12	-4.2%	3	-2.0	-3
O=C(CSc1nc(N2CCCCC2)nc(N2CCCCC2)n1)c1ccccc1	-13%	2	16	1.6%	8	-0.4	-8

Six of these compounds in a different format:
The line under a structure holds: Sfp PPTase inh | CtBP-E1A blk | D2 PAM | PINK1 expr mod | Six1-Eya2 blk | D2 ag | TRPV1 potentiator
- CC1CCCN(S(=O)(=O)c2ccc(N(C(=O)c3cnccn3)C(C(=O)NC3CCCCC3)c3cccs3)cc2)C1 (stereo unspecified)
  -4% | 1 | -6 | 0.1% | -6 | -1.2 | -20
- CCCS(=O)(=O)c1c(S(=O)(=O)CCC)c2c3ccccc3ccn2c1C(N)=O
  20% | -2 | 0 | 0.0% | -1 | -2.1 | -2
- COc1cc(/C=N/N=C(\N)c2nonc2N)cc(OC)c1O
  -2% | -24 | -2 | 2.7% | -21 | 2.9 | 3
- O=C(CSc1nc(N2CCCCC2)nc(N2CCCCC2)n1)c1ccccc1
  -13% | 2 | 16 | 1.6% | 8 | -0.4 | -8
- COc1ccc(NC(=O)Nc2ccccc2)cc1S(=O)(=O)N1CCCCC1
  6% | 0 | -15 | 0.2% | -6 | 2.8 | -17
- COc1ccc(NC(=O)C2CCCN2c2ccc(OC)c(OC)c2)cc1OC (stereo unspecified)
  -2% | -7 | 6 | -1.0% | -13 | -0.3 | 5

More entries follow.
SMILES	Sfp PPTase inh	CtBP-E1A blk	D2 PAM	PINK1 expr mod	Six1-Eya2 blk	D2 ag	TRPV1 potentiator
Cc1ccc(C(=O)N2NC(c3ccc(F)cc3)C3C(=O)N(c4ccc(C)cc4)C(=O)C32)cc1 (stereo unspecified)	8%	0	-2	-0.9%	10	-3.2	-25
CN(C)S(=O)(=O)c1ccc(C(=O)N2CCOCC2)cc1	11%	9	-5	·	2	-1.9	-1
Cc1ccc(NC(=O)c2cc(S(=O)(=O)N3CCCCC3)cs2)cc1	5%	-1	-17	1.5%[38.3 µM]	0	-0.5	-3
O=C(COC(=O)c1cnccn1)c1ccc(Cl)cc1	20%	2	-12	3.9%	-1	-8.3	1
O=C1/C(=C\c2ccc(O)c(O)c2)SC(=S)N1Cc1ccccc1	-19%	?	-19	7.3%	?	-16	6
COC(=O)Cc1ccc(NC(=O)C(c2ccccc2)c2ccccc2)cc1	3%	5	-9	0.3%	7	-0.8	-9
CCc1ccc(-c2cc(C)no2)cc1S(=O)(=O)NCc1ccc(OC)c(OC)c1	23%	4	4	3.5%	0	1.6	20
O=C1c2ccc3c4c(ccc(c24)C(=O)N1c1cccc(O)c1)CC3	5%	-13	2	-2.1%	-18	-0.2	2
Oc1ccc(-c2csc(Nc3ccc4c(c3)OCO4)n2)c(O)c1	·	·	-4	3.8%	-22	5.8	·
CN(CC(=O)Nc1ccccc1)CC(=O)Nc1ccccc1Cl	1%	2	-7	-0.4%	9	-9.0	-3
COC(=O)c1cc(S(=O)(=O)NC2CCC(C)CC2)cn1C (stereo unspecified)	12%	2	-3	-1.1%	0	-2.4	-4
CC(C)OC(=O)CN1C(=O)C(C)(C)Oc2ccc(C(=O)NC3CC3)cc21	2%	5	-9	14%[38.3 µM]	-1	-2.3	-10
COCC(=O)N(Cc1ccc(OC)cc1)Cc1nc2ccccc2c(=O)[nH]1	9%	3	-19	1.4%	-3	-4.1	0
O=C(CSc1nc(O)c(Cc2ccccc2F)c(=O)[nH]1)N1CCCCCC1	12%	-5	4	5.4%	0	-1.6	-2
CCCN1CNC(=S)N(CCc2ccccc2)C1	17%	-18	-5	-1.3%	-10	-4.5	3
Cn1c2c(c(=O)n(C)c1=O)C(CC(=O)Nc1ccc(F)cc1)C(=O)N2 (stereo unspecified)	1%	-9	-16	0.6%	2	-5.3	12
COc1ccc(S(=O)(=O)N2CCCCC2)cc1NC(=O)c1cccc(S(=O)(=O)N2CCOCC2)c1	·	2	-6	2.5%	-8	-2.1	·
C=CCn1c(NC(=O)c2ccc(C)cc2)c(C#N)sc1=N	4%	8	-3	-3.6%	-7	-0.1	-18
COC(=O)c1ccc(-c2noc(CN3CCCCC3c3nccn3C)n2)cc1 (stereo unspecified)	7%	-17	-8	-1.4%	2	-6.1	1
O=C(COC(=O)Cc1ccccc1F)Nc1ccc2[nH]c(=O)[nH]c2c1	·	-2	-23	3.0%	-24	-2.5	-5
CSc1nsc(SC)c1NC(=O)OCc1ccccc1	-1%	11	-6	1.0%[38.3 µM]	8	-2.1	25
COC(=O)[C@]12CCCCC=C1N(Cc1ccco1)C(=O)[C@H](CC(=O)NCc1ccc(C)o1)C2	·	1	·	0.2%	0	·	·
O=C1C(=C(c2ccccc2)c2ccccc2)Nc2ccccc21	3%	?	-14	-1.2%	-70*	-11	1
CCc1c(C)nc(SCC(=O)N2CC(C)OC(C)C2)[nH]c1=O (stereo unspecified)	·	-20	7	0.3%	3	0.3	2
O=C(NCc1ccc(Cl)cc1)c1ccc(Br)o1	-6%&14%	·	-15	3.5%	9	-3.1	-7

Structures listed so far printed as active in Sfp PPTase inh.
| SMILES | Sfp PPTase inh | CtBP-E1A blk | D2 PAM | PINK1 expr mod | Six1-Eya2 blk | D2 ag |
| --- | --- | --- | --- | --- | --- | --- |
| Fc1ccc(C[n+]2csc3ccccc32)cc1 | 45µM* | 0 | -2 | 3.0% | -13 | -2.7 |

The results go on:
SMILES	Sfp PPTase inh	CtBP-E1A blk	D2 PAM	PINK1 expr mod	Six1-Eya2 blk	D2 ag	TRPV1 potentiator
CC(C)(C)C(=O)N(CCN(C(=O)C(C)(C)C)c1ccccc1)c1ccccc1	22%	2	5	14%[38.3 µM]	2	2.1	-17
Cc1ccc2nc(-c3ccccn3)c(Nc3ccccc3C)n2c1	1%	-91*	-39	?	?	-7.5	-1
Nc1nnc(-c2cc3ccccc3oc2=O)s1	3%	-15	-10	6.7%	-23	-2.6	-14
CC1(C)C(c2cccs2)=[N+]([O-])C2(CCCCC/C2=N\NC(N)=S)N1O (stereo unspecified)	89µM*	8	-3	0.0%	9	-0.5	-1
COc1ccc(C2C(C(=O)c3cccs3)=C(O)C(=O)N2c2nncs2)cc1 (stereo unspecified)	-28%	2	-7	2.0%[38.3 µM]	-9	-2.8	-17
COc1ccc(C(CNC(=O)COc2ccc(Br)cc2F)N2CCCC2)cc1 (stereo unspecified)	18%	14	-16	-2.6%	-24	-2.5	-8
